Source: PubChem
Vaccinia mCherry – qHTS for Stage-Specific Inhibitors of Vaccinia Orthopoxvirus: mCherry Reporter Primary qHTS; AID 720579, 2013; Potency, µM (highest dose often 36.5 µM), for the others: at the top dose activity change, negative = inhibition, hits mostly inhibitors; Vaccinia virus mCherry reporter infection, fluorescence; about a quarter of the inactives have no number; 310,000 compounds, 0.63% hits; active = well fitted inhibition curve with a large enough effect; inconclusive = small, poorly fitted or top-dose-only effect; inactive = no such curve, though single readings can be large or run the other way; tested in A549 cells; also: nearly all actives have a fitted effect of over 35% in size; inactives centre near -10
Vaccinia Venus – qHTS for Stage-Specific Inhibitors of Vaccinia Orthopoxvirus: Venus Reporter Primary qHTS. AID 720580, 2013. Vaccinia virus Venus reporter expression, fluorescence. Potency, µM (titrated, usually from 36.5 µM), for the others: at the highest dose activity change, negative = inhibition, most hits filed as inhibitors. 330,000 compounds, 0.46% hits; active means well fitted inhibition curve with a large enough effect; inconclusive means small, poorly fitted or top-dose-only effect; inactive means no such curve, though single readings can be large or run the other way; tested in A549 cells; also: nearly all actives have a fitted effect of over 30% in size; inactives centre near -10
* hit, by the source's call; i = inactive; ? = inconclusive; nt = no result given; & = joins results of further samples; [ ] = another dose, or the depositor's remark. % is scaled to controls: 0 for no effect and ±100 for the full control effect; potency is read from the fitted curve at half-maximal effect.

1	CN(C)S(=O)(=O)c1cccc(NC(=O)COc2nc3ccccc3nc2N2CCOCC2)c1
2	Cc1ccc(CN(C(=O)COc2cccc(C)c2C)C2CCS(=O)(=O)C2)o1 (configuration not stated)
3	CC(=O)c1cc2cccc(OC3(C)CCN(Cc4ccc(-c5ccccn5)cc4)C3)c2o1 (configuration not stated)
4	CCOC(=O)c1cnc(C(F)(F)F)nc1Oc1ccccc1
5	COC(=O)c1ccc(COc2ccc(NC(C)=O)cc2)o1
6	COc1ccc2nc3c(C)n(C)ccc-3c2c1
7	O=C(COC(=O)c1ccccc1Oc1ccccc1)Nc1ccc(Br)cc1
8	Cc1ccc(NC(=O)c2ccco2)c(NC(=O)COc2ccccc2)c1
Assay by compound	1	2	3	4	5	6	7	8
Vaccinia mCherry	i	-11.4%	-23.9%	-12.6%	-11.4%	-16.2%	-1.4%	3.6%
Vaccinia Venus	0.5%	2.9%	-11.6%	-9.4%	-13.1%	-6.2%	-17.2%	-11.7%

9	O=C(COC(=O)c1ccc(C(F)(F)F)cc1)Nc1cccc(S(=O)(=O)NC2=NCCCCC2)c1
10	CC1Cc2ccccc2N1S(=O)(=O)c1cccc(C(=O)OCC(=O)NC2CCS(=O)(=O)C2)c1 (configuration not stated)
11	c1cnc2c(SCc3ccc(-c4nnco4)cc3)cccc2c1
12	COc1ccccc1NC(=O)Cn1c(=O)n(-c2ccccc2)c(=O)c2oc3ccccc3c21
13	CCCCOC(=O)c1ccc(NC(=O)/C(C#N)=C/c2ccc(C)o2)cc1
14	CC(=O)Nc1ccc(Oc2nc(-c3ccccn3)nc3ccccc23)cc1
15	CCn1c(CN2CCN(C)CC2)nc2cc(NC(=O)c3cc(OC)c(OC)c(OC)c3)ccc21
16	Cc1ccc(NC(=O)c2ncn(CCCNCCN3CCOCC3)n2)cc1C
Assay by compound	9	10	11	12	13	14	15	16
Vaccinia mCherry	-7.7%	nt	nt	i	-4.4%	-12.6%	-16.2%	-9.5%
Vaccinia Venus	3.8%	-18.7%	-23.9%	-6.4%	11.1%	?	0.8%	-24.0%

17	COc1ccc(/C=C/C(=O)NC(=S)Nc2ccccc2C(=O)NC2CCCCC2)cc1
18	CCOC(=O)Cc1csc(NC(=O)c2cnc3sc(C)cn3c2=O)n1
19	O=C(Nc1ccccc1)C1CC(=O)N(Cc2ccccc2)C1 (configuration not stated)
20	CC(=O)OCCCNc1cc(Sc2nc3ccccc3s2)c2nonc2c1[N+](=O)[O-]
21	COc1cc(NC(=O)CN(c2ccc(C)cc2)S(=O)(=O)c2c(C)n[nH]c2C)cc(OC)c1
22	CC(C)=CCC/C(C)=C/COc1c2occc2cc2ccc(=O)oc12
23	COc1cc(C2C(C(=O)Nc3ccccc3C)=C(C)Nc3nc(SCc4cc(C)ccc4C)nn32)ccc1O (configuration not stated)
24	Cc1cc(C)c(NC(=O)c2ccccc2C(=O)c2ccccc2)c(C)c1
Assay by compound	17	18	19	20	21	22	23	24
Vaccinia mCherry	i	i	-13.3%	-2.6%	-14.0%	43.9%[activator]	?	-1.2%
Vaccinia Venus	-11.6%	-4.1%	4.4%	-2.4%	-18.5%	-1.2%	?	-6.6%

A second format for 4 compounds above.
no. | SMILES | Vaccinia mCherry | Vaccinia Venus
19 | O=C(Nc1ccccc1)C1CC(=O)N(Cc2ccccc2)C1 (configuration not stated) | -13.3% | 4.4%
20 | CC(=O)OCCCNc1cc(Sc2nc3ccccc3s2)c2nonc2c1[N+](=O)[O-] | -2.6% | -2.4%
21 | COc1cc(NC(=O)CN(c2ccc(C)cc2)S(=O)(=O)c2c(C)n[nH]c2C)cc(OC)c1 | -14.0% | -18.5%
22 | CC(C)=CCC/C(C)=C/COc1c2occc2cc2ccc(=O)oc12 | 43.9%[activator] | -1.2%

Next section.
25	CC(=O)OC1COC(N2CCc3cc([N+](=O)[O-])ccc32)C(OC(C)=O)C1OC(C)=O (configuration not stated)
26	O=C(c1scc2c1CCCC2)N1CCOCC1
27	Nc1ccccc1N=c1ssnc1Cl
28	COc1ccc(NS(=O)(=O)c2cn(C)cn2)cc1
29	CC(CC(=O)NCCc1ccc(Cl)cc1)S(=O)(=O)c1ccc2c(c1)NC(=O)CO2 (configuration not stated)
30	O=C(CSCc1nc2cccnc2n1C1CCCCC1)NCc1cccc(Cl)c1
31	CC(C)(C)c1cc(C(=O)NCC(=O)OCC(=O)c2cccc([N+](=O)[O-])c2)cc(C(C)(C)C)c1
32	Cc1nnc(SCc2ccc(Cl)c(Cl)c2)s1
Assay by compound	25	26	27	28	29	30	31	32
Vaccinia mCherry	nt	-12.5%	i	-27.9%	-17.4%	-12.6%	i	-2.8%
Vaccinia Venus	?	-15.5%	-0.7%	-7.2%	-10.8%	-12.2%	-9.1%	0.0%

33	CCOC(=O)N1CCN(C(=O)c2ccc3c(=O)n(CCOC)c(=O)[nH]c3c2)CC1
34	CCOc1cc(C(=O)NCCc2csc(-c3ccc(C)cc3)n2)cc(OCC)c1OCC
35	N#Cc1ccncc1Sc1ccc(Cl)cc1
36	c1ccc(CN2CCN(Cc3ccc4ccccc4c3)CC2)cc1
37	O=[N+]([O-])c1ccc(Oc2ccc(S(=O)(=O)N3CCOCC3)cn2)cc1
38	CC(C)(C)c1nnc(N/N=C/c2ccc(O)cc2)n(N)c1=O
39	COc1cccc(CN2CC(C(=O)NCCn3cccn3)CCC2=O)c1 (configuration not stated)
40	CCC(CO)NC(=O)C1C=C2c3cccc4[nH]cc(c34)CC2N(C)C1 (configuration not stated)
Assay by compound	33	34	35	36	37	38	39	40
Vaccinia mCherry	-9.2%	2.4%	-11.8%	i	-3.1%	-10.6%	-18.0%	-12.7%
Vaccinia Venus	-1.6%	-11.0%	-5.5%	-9.2%	-18.1%	-3.0%	-9.4%	-5.4%&-15.1%

41	O=C(c1ccc(CSc2nc3ccncc3n2Cc2ccccc2F)cc1)N1CCCCCC1
42	CC1CCN(C(=O)COc2ccc(Nc3ccccc3)cc2)CC1
43	CCOC(=O)c1cccc(NC(=O)CCOc2ccccc2)c1
44	Oc1ccc(N=Nc2cccc(Cl)c2)cc1C=Nc1ccc(N2CCOCC2)cc1
45	COc1ccccc1NS(=O)(=O)c1c(C)nc2sccn2c1=O
46	COc1ccccc1CNC(=O)COc1ccccc1OC
47	Cc1ccc(CN2CC(C(=O)Nc3cc(S(C)(=O)=O)ccc3Cl)CC2=O)cc1 (configuration not stated)
48	CCCn1c2c(c(=N)c3c1CCC3)CCCC2
Assay by compound	41	42	43	44	45	46	47	48
Vaccinia mCherry	-26.2%	-1.5%	-10.9%	-5.9%	-2.1%	-7.7%	-13.8%	-19.7%
Vaccinia Venus	-21.0%	6.4%	-20.7%	-4.1%	-13.4%	-7.8%	-21.1%	-21.7%

49	CN(Cc1ccccc1)C(=O)c1ccc(NC(=O)Cc2ccc(NC(=O)C3CCCN(C(=O)C4CCCC4)C3)cc2)cc1 (configuration not stated)
50	O=C(C1=C(O)C(=O)N(c2ncccn2)C1c1ccc(Cl)c(Cl)c1)c1ccco1 (configuration not stated)
51	Cc1oc2c(c1C(=O)c1ccc(Cl)cc1)C(=O)C(=O)c1ccccc1-2
52	CC12CCC(C(=O)N3CCN(c4ccccc4)CC3)(CC1=O)C2(C)C (configuration not stated)
53	CCOC(=O)N1CCc2c(sc(NCc3ccc(OC)c(Br)c3)c2C(=O)Nc2cc(OC)ccc2OC)C1
54	O=C(N/N=C/C1C(=O)NC(=S)N(c2ccccc2)C1=O)c1cc(Br)c(O)c(Br)c1 (configuration not stated)
55	Cc1ccc(CN2CCCN(C)CC2)c(C)c1
56	COc1cc(CN2CCN(CCCc3ccccc3)CC2CCO)cc(OC)c1 (configuration not stated)
Assay by compound	49	50	51	52	53	54	55	56
Vaccinia mCherry	-24.7%	i	-4.7%	nt	-5.0%	i	-10.9%	-14.2%
Vaccinia Venus	-7.8%	7.5%	0.0%	-15.8%	-12.6%	-10.2%	-5.8%	-13.7%

57	COc1ccc(N2C(=O)c3ccccc3C(C)(C)C2=O)cc1
58	Cc1ccc(C)c(CSc2nc3[nH]ncc3c(=O)[nH]2)c1
59	C(=N\N=C\c1ccccn1)/c1ccccn1
60	O=C(Nc1cccnc1)c1ccccc1NS(=O)(=O)c1ccc(F)cc1
61	CCOP(=O)(OCC)/C(=N/OC(=O)c1ccc(Cl)cc1Cl)C(N)=O
62	CC(C(=O)NCc1cccc(Br)c1)n1ncn2cccc2c1=O (configuration not stated)
63	Cc1ccc(OCC(=O)N(C)CC(=O)NCc2ccco2)c(Br)c1
64	COc1cc2c(cc1OC)CN(c1ccc(-c3ccccc3OC)nn1)CC2
Assay by compound	57	58	59	60	61	62	63	64
Vaccinia mCherry	-7.5%	-6.8%	-26.4%	-28.7%	-10.9%	1.7%	-9.2%	-19.1%
Vaccinia Venus	-1.8%	-28.3%	-9.2%	-18.8%	-2.9%	-4.6%	-4.9%	1.0%

65	COc1ccc(CNCC(=O)Nc2ccccc2-n2cccc2)cc1
66	O=C(N/N=C/c1ccc[nH]1)c1ccccc1OCc1ccccc1Cl
67	Cc1cccc(N(Cc2ccccc2)C(=O)CSC(C)C(=O)Nc2cc(C)on2)c1 (configuration not stated)
68	COc1ccc(NC(=O)CCS(=O)(=O)c2cc3c4c(c2)CCN4C(=O)CC3)c(OC)c1
69	CCOc1ccc(-c2nc(N)ncc2-c2ccccc2OC)c(O)c1
70	CS(=O)(=O)c1ccc2c(c1)SC1=NC(=O)/C(=C/c3ccco3)C(=N)N12
71	C[C@H](CO)N1C[C@H](C)[C@@H](CN(C)S(=O)(=O)c2ccc(Cl)cc2)OCc2cnnn2CCCC1=O
72	COc1ccc2nc(NC(=O)CSc3cn[nH]n3)sc2c1
Assay by compound	65	66	67	68	69	70	71	72
Vaccinia mCherry	?	-15.6%	i	-5.7%	?	11.4%	-6.5%	-21.2%
Vaccinia Venus	?	-9.7%	-0.1%	0.4%	-25.0%	32.8%[activator]	-3.9%	-6.5%

73	Fc1ccc2nc(C(F)(F)F)cc(N3CCOCC3)c2c1
74	Cc1cc(=O)[nH]c(SCC(=O)N2CCCCCC2)n1
75	CCCCn1c(N)c(N(CCOC)C(=O)c2ccc(-c3ccccc3)cc2)c(=O)[nH]c1=O
76	CCOc1ccc(CCNC(=O)Cn2nnc(-c3ccccc3Cl)n2)cc1OCC
77	COc1ccccc1CNc1ccnc(-c2ccc3c(c2)OCO3)n1
78	CCc1ccc(Oc2coc3cc(OCC(=O)Nc4cc(C)ccc4C)ccc3c2=O)cc1
79	COc1ccc(CCNC(=O)c2ccc(CS(=O)(=O)c3ccc(C)cc3)o2)cc1OC
80	O=C(C[C@@H]1CC[C@@H]2[C@H](COC[C@H](O)CN2C(=O)Nc2ccc(F)cc2)O1)NCCc1ccncc1
Assay by compound	73	74	75	76	77	78	79	80
Vaccinia mCherry	-9.4%	-22.8%[1.46 µM]	-0.4%	-4.3%	-12.1%	-1.1%	i	-8.7%
Vaccinia Venus	-8.6%	-14.4%	-25.2%	-8.6%	-10.5%	-15.9%	-8.5%	-18.3%

Molecules listed so far containing a thiophene ring, fused or not, in the order listed:
26	O=C(c1scc2c1CCCC2)N1CCOCC1
53	CCOC(=O)N1CCc2c(sc(NCc3ccc(OC)c(Br)c3)c2C(=O)Nc2cc(OC)ccc2OC)C1
Assay by compound	26	53
Vaccinia mCherry	-12.5%	-5.0%
Vaccinia Venus	-15.5%	-12.6%

Next section
81	CC(=O)c1ccc(NC(=O)Nc2nnc(N3CCCC(C)C3)s2)cc1 (configuration not stated)
82	O=C(Cn1ccc(C(F)(F)F)n1)Nc1ccc(S(=O)(=O)NCc2ccco2)cc1
83	O=C(NC1CCCCC1NC(=O)c1ccco1)c1ccco1 (configuration not stated)
84	COC(=O)[C@@H](NC(=O)Nc1cccc(OC)c1)C(C)C
85	Cc1ccc(CNc2ccc(-c3nc(-c4cccnc4)no3)cc2[N+](=O)[O-])cc1
86	Cc1ccc(S(=O)(=O)/N=C2\C=C(NS(=O)(=O)c3ccccc3)C(=O)c3ccccc32)c(C)c1
87	CCOC(=O)c1c(NC(=O)/C=C/c2ccccc2)sc2c1CCCC2
88	O=C(N/C(=C\c1ccccc1)C(=O)N1CCOCC1)c1cccc(Br)c1
89	CCc1nnc(NC(=O)CN2CCOCC2)s1
Assay by compound	81	82	83	84	85	86	87	88	89
Vaccinia mCherry	-16.3%	-14.9%	-8.2%[1.46 µM]	-12.0%	6.9%	?	0.4%	-3.2%	-6.8%
Vaccinia Venus	-25.9%	-7.3%	-11.1%	-1.7%	4.4%	11.6%	12.3%	-15.5%	-7.3%

An unsorted share of the library; overall some 0.86% were active at least once.
